# HIV TAR-Tat = HIV-1 TAR-Tat binding disruption; z-score (no concentration beside the values); 0.6% of 100,000 active; HIV-1 TAR RNA, Tat peptide displacement FRET; hits give high values;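 also: score is relative to mean and SD of negative controls; some compounds called inactive have numbers as strong as hits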
# CDC25B-CDK2 inh = human CDC25B-CDK2/CyclinA binding inhibition. P30305+P24941. HTRF CDC25B-CDK2/CyclinA binding, anti-His/anti-Flag; hits give high values. z-score (concentration not given with the values). 0.72% of 94,000 active;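 also: score is relative to mean and SD of negative controls; strong numbers were not always called active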
# The depositor's hits bear a star; nt = not tested or not shown.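 The calls were made as follows: active = z-score from 3 up in half or more of its runs; inactive = the rest.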 Rows were taken by chance. About 0.87% of those tested had a hit in this group.
# Order of results: HIV TAR-Tat	CDC25B-CDK2 inh
O=C(CCc1nnc2ccc(NCc3ccco3)nn12)NCc1ccc2c(c1)OCO2
    0.12	nt
CCOC(=S)SCc1nc(-c2ccc(Cl)cc2)no1
    nt	-0.61
COC(=O)c1cc2c(cc1NC(=O)c1sc3nc4n(c(=O)c3c1C)CCCCC4)OCO2
    1.6	nt
CCCN1C(=O)C(O)(CC(=O)c2ccco2)c2cc(Br)ccc21 (centres undefined)
    1.8	-0.55
COc1cccc(C2c3c(-c4ccccc4)n[nH]c(=O)c3Nc3nnnn32)c1 (centres undefined)
    1.2	-0.08
Cc1ccc(CN(Cc2ccco2)C(=O)COc2ccc(Br)cc2)o1
    -0.42	0.64
Cc1ccccc1-c1nc2scc(CCNS(=O)(=O)c3ccc(F)cc3F)n2n1
    1.3	nt
Cn1c(=O)oc2cc(S(=O)(=O)CCC(=O)Nc3ccccc3F)ccc21
    1	nt
O=C(NC1CCN(c2nc3ccccc3s2)CC1)C1CCN(c2cnccn2)CC1
    0.65	0.09
CCOC(=O)c1nc(N)sc1C(=O)OCC
    -0.3	-2.5
COC(=O)C1=NOC2C(=O)N(c3ccc(Cl)cc3)C(=O)C12 (centres undefined)
    0.33	-1.2
Cc1ccc2c(C)c(C(=O)Nc3nc4c(s3)CCCC4)oc2c1
    1.1	-1.5
COc1cc(Nc2cc(C)nc3nnnn23)cc(OC)c1OC
    nt	-1.5
Nc1ccc(-c2nc3ccc(N)cc3[nH]2)cc1
    nt	-1.5
O=C(Nc1ccc(Cl)cc1)N1CCC(CN2CCCCC2)CC1
    1.2	nt
Cn1c(=O)c2c(-c3ccc(Cl)cc3)n(C(CO)(CO)CO)cc2n(C)c1=O
    -1.9	-2.4
COc1ccc(CCN[C@H]2CS(=O)(=O)C[C@@H]2S(=O)(=O)c2ccc(Cl)cc2)cc1OC
    2.2	-2.2
O=C(Nc1cccc(-c2nc3ncccc3o2)c1)c1sc2ccccc2c1Cl
    nt	1
CCOc1ccc(C2/C(=C(/O)c3ccc(C)cc3)C(=O)C(=O)N2CC(C)O)cc1 (centres undefined)
    -0.53	-2.4
O=C(NC1CCCC1)c1ccc(C2SCC(=O)N2CCc2ccccc2)cc1 (centres undefined)
    -1.6	-2.3
COc1cccc(OC)c1C(C)(O)C(OC)OC (centres undefined)
    nt	-1.6
Cc1ccc(NCC(O)Cn2nnnc2-c2ccccc2)cc1F (centres undefined)
    0.95	-0.36
COC(=O)c1ccc(CN2C(=O)C(=O)c3ccccc32)cc1
    1.3	-1.2
O=C(Cc1ccccc1)NCc1nc(-c2ccc3c(c2)nnn3C2CCCC2)no1
    -0.65	nt
C=C[C@](C)(O)CC[C@@H]1[C@@]2(C)CCCC(C)(C)C2CC[C@@]1(C)O (some centres undefined)
    2.5	nt
Cc1ccc2nc(C)c(Cc3nnc(SCC(=O)Nc4ccc(C(C)C)cc4)n3C)c(=O)n2c1
    1	-1.1
CCOCCCNC(=O)NC1COc2ccc(OC)cc2C1 (centres undefined)
    1.1	nt
Nc1ccc(-c2nc3ccc(-c4nc5ccccc5o4)cc3[nH]2)cc1
    2.1	1.9
Nc1c2c(nc3c1CCC3)CCCCC2
    nt	-0.49
Cc1cc(C)cc(NS(=O)(=O)c2ccc3c(c2)NC(=O)C(C)S3)c1 (centres undefined)
    2.1	nt
N/C(=N\OC(=O)c1ccc(C#Cc2ccccc2)o1)c1cnccn1
    nt	0.35
Cc1cccc(Nc2nn3c(=O)c4cc5c(cc4nc3s2)OCO5)c1
    13*	nt
CS(=O)(=O)N1CCC(c2nc3c(nnn3Cc3ccccc3F)c(=O)[nH]2)CC1
    -0.91	-2.2
Cc1cc(C)cc(C(=O)Nc2nnc3n2CCCS3)c1
    1.6	nt
COc1ccc(C(=O)c2cn(Cc3ccccc3F)c3cc4c(cc3c2=O)OCCO4)cc1OC
    -1.1	-1.3
COc1ccc(-c2c3c(=O)n(C)c(=O)n(C)c3c3n2CCOC3c2cc(OC)ccc2OC)cc1 (centres undefined)
    -0.02	-1.9
C=CCOc1ccc(C2c3c(oc4cc(C)c(C)cc4c3=O)C(=O)N2CCCN(C)C)cc1OCC (centres undefined)
    0.11	-2
Cc1c(C(=O)N2CCCC2)oc2c1-c1nn(CC(=O)N3CCN(c4ccccc4)CC3)cc1CC2
    2.7	nt
O=c1cc(CSc2ccc(Cl)cc2)nc(N2CCN(Cc3ccc4c(c3)OCO4)CC2)[nH]1
    -2.1	-2.3
Nc1c(C(=O)CCC(=O)O)oc2ccc(Cl)cc12
    -0.72	-0.84

# Grouped by structure: the entries above with a furan ring, fused or not.
# Order of results: HIV TAR-Tat	CDC25B-CDK2 inh
O=C(CCc1nnc2ccc(NCc3ccco3)nn12)NCc1ccc2c(c1)OCO2
    0.12	nt
CCCN1C(=O)C(O)(CC(=O)c2ccco2)c2cc(Br)ccc21 (centres undefined)
    1.8	-0.55
Cc1ccc(CN(Cc2ccco2)C(=O)COc2ccc(Br)cc2)o1
    -0.42	0.64
Cc1ccc2c(C)c(C(=O)Nc3nc4c(s3)CCCC4)oc2c1
    1.1	-1.5
N/C(=N\OC(=O)c1ccc(C#Cc2ccccc2)o1)c1cnccn1
    nt	0.35
Cc1c(C(=O)N2CCCC2)oc2c1-c1nn(CC(=O)N3CCN(c4ccccc4)CC3)cc1CC2
    2.7	nt
Nc1c(C(=O)CCC(=O)O)oc2ccc(Cl)cc12
    -0.72	-0.84

# Back to the main list; the 2 compounds before the break are reprinted first.
# Order of results: HIV TAR-Tat	CDC25B-CDK2 inh
O=c1cc(CSc2ccc(Cl)cc2)nc(N2CCN(Cc3ccc4c(c3)OCO4)CC2)[nH]1
    -2.1	-2.3
Nc1c(C(=O)CCC(=O)O)oc2ccc(Cl)cc12
    -0.72	-0.84
Cn1c(=O)c2c(nc(SCc3cc4c(cc3Cl)OCO4)n2C)n(C)c1=O
    1.3	-2.3
Cc1cc(C)c(-c2c(N3CCN(c4cccc(Cl)c4)CC3)c(=O)c2=O)cc1C
    -0.28	nt
CCOc1ccc(S(=O)(=O)[C@H]2CS(=O)(=O)C[C@@H]2N2CCN(c3ccc(F)cc3)CC2)cc1
    1.2	-1.5
COc1cc(OC)cc(C(=O)Nc2ccc(-c3ccc(NC(=O)c4cc(OC)cc(OC)c4)c(OC)c3)cc2OC)c1
    nt	-2.8
Cc1ccc(CN[C@H]2CS(=O)(=O)C[C@@H]2S(=O)(=O)c2ccc(Cl)cc2)cc1
    2.5	-2.4
CNC(=O)C(=O)NCC(c1ccco1)S(=O)(=O)c1ccc(Cl)cc1 (centres undefined)
    0.63	nt
COc1ccc(-n2nnnc2CNS(=O)(=O)c2ccc(Br)cc2)cc1
    -0.19	nt
Cc1ccc(S(=O)(=O)c2cn(Cc3cccc(C)c3)c3cc4c(cc3c2=O)OCO4)cc1
    -0.07	-0.36
COc1ccc(NS(=O)(=O)c2ccc(NC(=O)c3ccccc3)cc2)nn1
    nt	-1.1
Cc1ccc2onc(CNC(=O)N3CCc4ccccc43)c2c1
    0.12	nt
CCNc1oc(/C=C/c2ccc(OC)c(OC)c2)nc1C#N
    -0.57	-1.9
Cc1nc(S(=O)(=O)N2CCN(c3cccc(Cl)c3)CC2)cn1C
    1.8	nt
COc1ccc(Nc2ncnc3c2cnn3-c2ccc(F)cc2)cc1
    2.5	nt
Cc1ccc(S(=O)(=O)Nc2ccc(S(=O)(=O)Nc3ccc(F)cc3)cc2)cc1
    nt	1.9
Cc1ccc(S(=O)(=O)c2nnn(-c3ccc(F)cc3)c2C)cc1C
    0.4	-1
Cc1ccc(-c2nc3ccccn3c2Nc2ccc3c(c2)OCO3)o1
    nt	0.88
CC1(C)CC(=O)C2=C(C1)Nc1ccccc1N(Cc1ccccc1)C2c1cccs1 (centres undefined)
    1.3	nt
FC(F)(F)C1=CC(c2ccc(Br)cc2)=NCCN1
    2.4	-0.03
COc1cccc(NS(=O)(=O)c2ccc3[nH]c4c(c3c2)CCCC4)c1
    -0.27	nt
Cc1nn(Cc2cccc(C(N)=O)c2)c(C)c1Br
    nt	-1.6

# Remaining list, next part.
Structure	HIV TAR-Tat	CDC25B-CDK2 inh
NC(=O)C1CC1(Cl)Cl (centres undefined)	nt	-0.98
O=S(=O)(Nc1ccc(OCc2ccccc2)cc1)c1ccc2ccccc2c1	-0.83	-0.43
O=S1(=O)CCC(S(=O)(=O)NCc2ccco2)C1 (centres undefined)	-1.5	-1.4
Cc1ccc(NS(=O)(=O)c2ccc(-c3coc(C)n3)cc2)c(Cl)c1	0.16	nt
Cc1ccn2cc(CSc3ccccc3N)nc2c1	-0.85	0.63
COc1cccc2c1OC(c1cccnc1)N1N=C(c3cc(Cl)ccc3O)CC21 (centres undefined)	-0.88	0.66
Cn1c(=O)oc2cc(S(=O)(=O)N3CCCC(C(=O)Nc4ccc(F)c(Cl)c4)C3)ccc21 (centres undefined)	-0.1	-0.5
Cc1nn(S(=O)(=O)c2cccs2)c(C)c1S(=O)(=O)N1CCCCC1	0.66	nt
COc1ccc(Nc2nc3ccccc3n3cnnc23)cc1OC	0.72	-1
CC1Cc2ccccc2N1C(=O)CSc1nnc(-c2ccccc2Cl)o1 (centres undefined)	0.44	-1.6
Cc1ccc(C)c(CSc2nc(C3CCCCC3)c(C#N)c(=O)[nH]2)c1	nt	-0.02
COc1ccc(CN2Cc3ccncc3C2=O)cc1	1.2	nt
CC(C)CNc1ncnc2c1c(-c1ccccc1)cn2-c1ccccc1	nt	-1.1
CCOc1ccc(Nc2nc3ccccc3n3c(CC)nnc23)cc1	1	-0.83
Nc1nc(N2CCCCC2)nc(Nc2cccc(F)c2)c1[N+](=O)[O-]	-0.07	nt
COc1ccc2nc3oc(C(=O)N4CCCCC4)cc3cc2c1	nt	-5.2
CCCSc1nc2c([nH]c3ccccc32)c(=O)n1C	0.92	nt
Cc1cc(C)nc(Nc2nc3ccccc3o2)n1	-1.2	-0.46
O=c1nc(Nc2ccc(OC(F)(F)F)cc2)oc2ccccc12	nt	-3
CCCCNC(=O)C1CCN(c2nn3c(=O)cc(CCC)nc3s2)CC1	1.2	-1.4
COc1ccc(-c2cc(C)no2)cc1S(=O)(=O)Nc1ccc2c(c1)OCO2	1.2	nt
COCCN1C(=O)C(=O)/C(=C(\O)c2ccc(Cl)cc2)C12C(=O)N(C)c1ccccc12 (centres undefined)	3.3	0.34
COc1ccccc1OCCCCCCN1CCOCC1	-0.18	0.95
COc1ccccc1NC(=O)[C@H](CCSC)N1Cc2ccccc2C1=O	2.3	-2.6
Brc1ccc(Br)c2ccccc12	nt	1.6
COC(=O)c1sc(N(C)C)c(C#N)c1-c1ccc(Cl)cc1	nt	-1.3
CN(C(=O)CN1C(=O)CCSc2ccc(S(=O)(=O)N3CCCC3)cc21)c1ccccc1	1.7	nt
Cc1c(C)c(NC(=O)/C=C/C(=O)O)c(C)c(C)c1NC(=O)/C=C/C(=O)O	nt	-1.4
Cn1c(=O)c2c(-c3ccccc3)n3c(c2n(C)c1=O)C(c1cc(Br)ccc1O)OCC3 (centres undefined)	-0.82	-2
O=c1cc(CSCc2ccccc2)nc2scc(-c3ccccc3)n12	0.49	-0.34
C=CCNC(=S)N(CCC#N)C1CCCCC1	nt	-1.6
COc1ccc(N2CC(c3n[nH]c(=S)o3)CC2=O)cc1Cl (centres undefined)	0.46	0.17
CC1=C(c2ccc(C)cc2)S(=O)(=O)N=C1Nc1ccc(C)cc1C	0.15	-2.5
COc1ccc(O)c(C2=NN3C(C2)c2cccc(OC)c2OC3c2cccnc2)c1 (centres undefined)	-0.93	-1.4
CC(=O)N1CCc2cc(Br)cc(S(=O)(=O)N3CCCC3c3cccc(F)c3)c21 (centres undefined)	1.6	-2.3
COC(=O)c1cc(S(=O)(=O)N2CCc3ccccc3C2)c[nH]1	1.1	nt
Cc1cccc(NNC(=O)C2CCC2)c1	nt	-1.1
O=c1[nH]cnc2c1nnn2-c1cccc(Cl)c1	-0.04	-1.9
CCOC(=O)c1c(C)n(S(C)(=O)=O)c2ccc(N(C(=O)c3ccco3)S(C)(=O)=O)cc12	-0.72	-0.02
c1ccc2c(NC34CC5CC(CC(C5)C3)C4)nc(N3CCCC3)nc2c1	nt	0.34
Cc1ccc(S(=O)(=O)[C@H]2CS(=O)(=O)C[C@@H]2N2CCC(C)CC2)cc1	0.37	-1.1
COc1ccc(C2C(=O)N(C3CCCCC3)CC(=O)N2C2CCCC2)cc1 (centres undefined)	nt	-1.9
CC1=CC=CC2=NC(=O)CC(C)(C(=O)O)N12 (centres undefined)	1.2	nt
CCCn1cnc2c(oc3ccccc32)c1=O	1.7	nt
CCCc1nc2sc3c(NCCN4CCOCC4)ncnc3c2c2c1CCCC2	-8.9	0.38
COc1ccc(C2CC(c3ccc(C(C)C)cc3)Nc3nnnn32)cc1 (centres undefined)	2.5	nt
CN1c2ccccc2C(O)=C(C(=O)Nc2ccc(OC(F)(F)F)cc2)S1(=O)=O	nt	-2.6
O=C(C(=O)N1CCN(c2ccc(F)cc2)CC1)c1cn(CC(=O)N2CCOCC2)c2ccccc12	0.94	nt
COCCNc1ncnc2scc(-c3ccc(C)cc3)c12	0.9	-1.6
CSc1c(C#N)c(-c2cccs2)nn1C	nt	-2.3
CN(CC(=O)NCCCN1CCCC1=O)c1nnc(N2CCCCC2=O)s1	1.4	nt
CCc1ccc(-n2nc(C)c3c(C(F)(F)F)cc(=O)[nH]c32)cc1	1.4	nt
COc1cc(C(F)(F)F)c(-c2ncn[nH]2)cn1	nt	-0.94
O=c1c2ccccc2c2ccccc2c(=O)n1CC1CCCO1 (centres undefined)	0.32	-0.47
Cc1cc2c3c([nH]c2cc1S(=O)(=O)NCc1ccccn1)CC(C)(C)CC3=O	1.4	nt
O=C(Cn1c(=O)oc2ccccc21)Nc1ccc2c(c1)OCCO2	0.93	-0.9
O=C1O/C(=C\c2cc3c4c(c2)CCCN4CCC3)c2ccc([N+](=O)[O-])cc21	nt	-1.2
